Source: PubChem
NPYLR7 agonist = agonists of mosquito NPYLR7 receptor, primary screen, cell-based, Aedes aegypti, calcium fluorescence, mosquito biting behavior; Aedes aegypti neuropeptide Y-like receptor 7 (NPYLR7); HEK293T NPYLR7/Galpha15, GCaMP6s calcium fluorescence; activation, % at 10 µM; 0.15% of 270,000 active; in the data active = activation above about 40%;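 also: 0% = vehicle and 100% = reference agonist at the receptor; some compounds past the cut are filed as inactive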
NPYLR7 agonist max-min = second read-out of NPYLR7 agonist, no call of its own (marks repeat the call); activation, %; measured here: Max-Min RFU normalised activation; some inactives read as strong as hits;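 span of the calcium signal over five minutes; 0% = vehicle and 100% = native peptide agonist; compound fluorescence can raise it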
Active calls of the source: *; & = joins results of further samples.

Value order: NPYLR7 agonist	NPYLR7 agonist max-min
CCC(=O)C1=C(c2ccc(Br)cc2)N(C(=O)CC)n2cnnc2S1
    1	-1
COc1ccccc1-c1cc(C(=O)N2CCC3(CC2)OCCO3)n2nc(-c3ccccc3)cc2n1
    -2	2
CNC(=O)CN(C)C(=O)c1sc2cc(Cl)cc(Cl)c2c1Cl
    1	-1
O=C(c1ccc([N+](=O)[O-])o1)N(CCCN1CCOCC1)c1nc2ccccc2s1
    -4	-9
O=C(Nc1nc(CCC(=O)N2CCN(c3ccccn3)CC2)cs1)c1ccc[nH]c1=O
    -9	-14
CCOc1ccc(S(=O)(=O)NCCOc2ccc(-c3ccc(C)cc3)nn2)cc1
    -9	-15
Fc1cccc(C2=NOC(CNCc3ccccc3Cl)C2)c1 (stereo unspecified)
    -1	-3
Cc1ccccc1OCC(O)Cn1cnc2ccc(Cl)cc2c1=O (stereo unspecified)
    7	1
COc1ccc(CC(=O)Nc2nc(OC)cnc2-c2ccoc2)cc1
    -30	-32
O=C(Nc1cccc(-c2cccc(-c3ccc(F)cc3)n2)c1)N1c2ccccc2Sc2ccccc21
    16	20
CCOC(=O)c1c(NC(NC(C)=O)C(Cl)(Cl)Cl)sc(C(=O)Nc2ccccc2)c1C (stereo unspecified)
    21	32
C=CCn1c(=NC(=O)c2ccc(C(C)=O)cc2)sc2cc(S(C)(=O)=O)ccc21
    5	0
O=C(C1CCOC1)N(Cc1cccnc1)CC1CCN(C2CCCC2)CC1 (stereo unspecified)
    25	8
Cc1sc2nc(CCC(=O)N3CCN(CC(=O)N4CCCCC4C)CC3)[nH]c(=O)c2c1C (stereo unspecified)
    3	2
CC(NC(=O)c1cc2ccccc2oc1=O)c1ccccc1 (stereo unspecified)
    -4	-6
O=c1c2nc(N3CCCC3)sc2c(-c2cccs2)nn1Cc1cccc(C(F)(F)F)c1
    -1	-7
CCCCC(=O)Nc1c(-c2ccc(C)cc2)nc2ccc(C)cn12
    -6	-5
Cc1[nH]cnc1-c1nccn1Cc1scnc1-c1ccccc1
    15	10
O=C(C1CCC1)N1CCN(C(C(=O)N2CCSCC2)C2CCCC2)CC1 (stereo unspecified)
    -2	26
COc1ccc(CNC(=O)C2(c3ccc(F)cc3)CCC2)cn1
    -2	-4
COc1cccc(CN2C(=O)C3(SCCN3C(=O)c3ccc(F)cc3)c3cc(C)ccc32)c1 (stereo unspecified)
    6	9
COC(=O)c1ccc(COC(CN2CCN(C(=O)NCc3ccccc3Cl)CC2)c2cccc(OC)c2)cc1 (stereo unspecified)
    -2	6
O=P1(Nc2ccccc2)C=C(c2ccccc2)OC(c2ccccc2)=C1
    20	11
COCCN(Cc1ccc(OC)c(OC)c1)Cc1ccc(C(=O)OC)o1
    -7	0
CC1COc2ccccc2N1CC(=O)NCc1ccc(Cl)cc1 (stereo unspecified)
    6	4
CSCc1nc2ccccc2n1CC(=O)NC1CC(=O)N(C2CC2c2ccccc2)C1 (stereo unspecified)
    1	0
Cc1cccc2c(CCNC3CCN(Cc4ccccn4)CC3)c[nH]c12
    14	2
CC(C)N(Cc1nnc(-c2ccccc2Cl)o1)C(=O)CCl
    -7	-8
N#CCc1ccc(NCc2nc3ccccc3c(=O)n2Cc2ccco2)cc1
    1	0
CNC(=O)C1CCN(CC(=O)N2c3ccccc3CCC2C)CC1 (stereo unspecified)
    4	1
O=C(NC1CC(=O)N(CCCc2ccccc2)C1)c1cnn2cccnc12 (stereo unspecified)
    -1	-4
OCCNc1cc(N2CCN(Cc3cccc4nsnc34)CC2)ncn1
    -5	-5
CCc1cc(=O)n(-c2ccc(F)cc2)[nH]1
    26	18
CC(=O)N1CCCN(C(=S)Nc2c(C(C)C)cccc2C(C)C)CC1
    11	7
CCn1cc(CNC(=O)CC2C(=O)NCCN2Cc2ccc(-c3ccccc3)cc2)cn1 (stereo unspecified)
    20	23
Cc1cn2c3c(=O)n(CCN4CCCCC4)c(=O)n(C)c3nc2n1C(C)c1ccccc1 (stereo unspecified)
    1	7
CCS(=O)(=O)c1ccc(CC(=O)Nc2ccc([N+](=O)[O-])cc2OC)cc1
    6	1
CC1=C(C(=O)OC(C)C)C(c2ccccc2C(F)(F)F)C2=C(CCCC2=O)N1 (stereo unspecified)
    0	-3
CCOC(=O)c1ccc(NC(=O)c2ccc(C)c(S(=O)(=O)N3CCOCC3)c2)cc1
    3	4
O=S(=O)(c1ccccc1)n1cccc1CN1CC[C@H]2CC[C@@H](C1)N2
    -2	-3
COc1cc(C(C)=O)ccc1OCc1cc(C(=O)N(C)CCC2CCCCO2)no1 (stereo unspecified)
    15	10
CCn1c(CNC(C)C(C)C)nc2cc(S(=O)(=O)N(C)C)ccc21 (stereo unspecified)
    0	7
CCCc1cc2c(=O)c(-c3ccc4c(c3)OCCO4)coc2cc1OC
    2	-5
O=C(c1ccc(Cl)cc1Cl)N1CCSC1c1ccc(F)cc1F (stereo unspecified)
    13	15
CCCS(CCC)=C(C(N)=O)[N+](=O)[O-]
    1	1
O=C(c1ccc(F)cc1F)N1CCN(c2nccc(-c3ccc(Oc4ccccc4)cc3)n2)CC1
    11	9
C=CCc1cc(OC)ccc1OCCOCCC(C(=O)OCC)C(=O)OCC
    -10	-20
COCCOC(=O)C1=C(C)NC2=C(C(=O)CC(c3ccccc3)C2)C1c1ccc(F)cc1 (stereo unspecified)
    -2	-4
O=C(Nc1cccc(-c2cccc(-c3ccc4c(c3)OCCO4)n2)c1)c1cncc(Br)c1
    35	34
COc1cc(N2CC(C(=O)Oc3ccccc3-n3ccnc3)CC2=O)cc(OC)c1OC (stereo unspecified)
    14	10
CCOc1ccccc1CNC(=O)c1cnc2c(-c3c(F)cccc3Cl)cnn2c1C
    0	-1
CCOC(=O)CCC(=O)N1CCN(c2c(Cc3ccccc3)c(C)nc3ncnn23)CC1
    21	11
O=C(CCC1CCN(C(=O)c2csnn2)CC1)NC1CCN(Cc2ccccc2)C1 (stereo unspecified)
    5	5
C=CCn1c(CSc2nc3ccccc3s2)nnc1SCC(=O)NCCCO
    -4	-7
Cc1cc(C)c2c3c(sc2n1)C1(CCSCC1)C(C#N)C(=N)O3 (stereo unspecified)
    -6	-12
CCN1CCN(C(=O)c2ccccc2N2CCC(NC(=O)c3ccco3)CC2)CC1
    1	14
O=C(NNC(=O)C12CC3CC(CC(Br)(C3)C1)C2)c1ccco1
    -5	-4
O=C(C1CC1c1cccc(F)c1F)N(CCCO)Cc1ccncc1 (stereo unspecified)
    -5	-7
CC(C)c1cc(C2CCN(C(=O)CC3(C)C(=O)N=C4C=CC=CN43)CC2)[nH]n1 (stereo unspecified)
    8	3
Cc1cc(C)c2c(c1)C(=NN=c1sc3ccccc3n1C)C(=O)N2
    5	5

More structures:
Value order: NPYLR7 agonist	NPYLR7 agonist max-min
CN(C(=O)CC12CC3CC(CC(O)(C3)C1)C2)c1ccccc1
    -2	-3
O=C(c1ncoc1C1CC1)N1CCC(c2n[nH]c(=O)n2-c2ccccc2)CC1
    3	1
O=C(CN(CC(=O)Nc1ccc(F)c(F)c1)Cc1ccc2c(c1)OCO2)Nc1ccc(F)c(F)c1
    -8	-11
Cn1c[n+](/N=C\c2ccco2)cn1
    15	10
COc1cccc(OCc2ccccc2)c1C(=O)NCCNc1cccc2ccccc12
    -7	-11
COc1ccc(CCNC(=O)c2ccccc2N2CCC(NC(=O)c3cccc(F)c3)CC2)cc1OC
    -1	3
C=CCCN(Cc1ccccc1)[C@H]1[C@H](O)C[C@@H]2C[C@H](COC)OC[C@]21O
    10	25
CN(Cc1cnn(C)c1)C(=O)C(NC(=O)c1ccccc1)c1ccccc1 (stereo unspecified)
    7	9
Cc1oc(C(C)C)cc1C(=O)N1CCC2(CN(C)C(=O)O2)C1 (stereo unspecified)
    9	7
CCc1nc2c(OCc3ccc(Cl)cc3Cl)cccn2c1N(C)C(=O)c1cccs1
    9	0
Clc1cccc(Oc2cc(N3CCCC3)ncn2)c1
    3	7
COCCCNc1nc2nonc2nc1N1CCCN(C2CCCCC2)CC1
    13&-4	8&-6
O=C(O)CCN1C(=O)/C(=C2/C(=O)N(CC(=O)O)c3ccccc32)SC1=S
    0	-3
Cc1cccc(C(C(=O)NCc2nnc3n2CCCCC3)N(C)C)c1 (stereo unspecified)
    5	6
C=CCSc1nnc2c(n1)OC(C)(C)Nc1ccc(Br)cc1-2
    3	1

Looked up by compound from above:
Value order: NPYLR7 agonist	NPYLR7 agonist max-min
CCc1nc2c(OCc3ccc(Cl)cc3Cl)cccn2c1N(C)C(=O)c1cccs1
    9	0
CN(Cc1cnn(C)c1)C(=O)C(NC(=O)c1ccccc1)c1ccccc1 (stereo unspecified)
    7	9
Cc1oc(C(C)C)cc1C(=O)N1CCC2(CN(C)C(=O)O2)C1 (stereo unspecified)
    9	7
Clc1cccc(Oc2cc(N3CCCC3)ncn2)c1
    3	7
CN(C(=O)CC12CC3CC(CC(O)(C3)C1)C2)c1ccccc1
    -2	-3
C=CCSc1nnc2c(n1)OC(C)(C)Nc1ccc(Br)cc1-2
    3	1

Next part
Value order: NPYLR7 agonist	NPYLR7 agonist max-min
OC1CN(c2cc(C(F)(F)F)nc(-c3cccnc3)n2)C1
    -3	-4
CCC(=O)Nc1ccc(C)cc1-c1c(Cl)cccc1OC
    7	5
C/C(=N\NC(=O)c1cc(C2CC2)[nH]n1)c1ccccc1
    5	6
O=C(CN1C(=O)c2ccccc2C1=O)Nc1ccc(F)cc1Cl
    -6	-14
O=S(=O)(Oc1cc(Cl)ccc1Cl)c1ccc(F)cc1
    -1	-7
COC(=O)c1ccc(CN(Cc2cc(OC)cc(OC)c2)C(C)C)o1
    -3	3
COc1cc(OC)cc(C(=O)NCC2Cc3cc(Oc4ccccc4)ccc3O2)c1 (stereo unspecified)
    5	5
Cc1ccc(NC(=O)NCCS(C)=O)cc1C(F)(F)F (stereo unspecified)
    4	1
CC(C)c1nc(CN(C)Cc2cncn2C)no1
    9	7
COc1ccccc1-c1c(C)nn2c(N3CCN(C4CCCCC4)CC3)cc(C)nc12
    3	8
CS(=O)(=O)CCNCc1ccccc1OCc1cccnc1
    2	-1
O=C(O)CC12CSc3[nH]c(=O)sc3C1c1ccccc1OC2=O (stereo unspecified)
    -2	-4
C(=C\c1ccccc1)/CN1CCN(Cc2nc(Cc3ccccc3)no2)CC1
    14	7
CCOc1ccc(C(=O)CSc2nccn(-c3ccc(C)cc3)c2=O)cc1
    1	-5
COc1ccc(NC(=O)N2CCC(C)CC2)c(C(F)(F)F)c1
    1	1

Ordered by heavy-atom count (largest number first): some entries from above
Value order: NPYLR7 agonist	NPYLR7 agonist max-min
COC(=O)c1ccc(COC(CN2CCN(C(=O)NCc3ccccc3Cl)CC2)c2cccc(OC)c2)cc1 (stereo unspecified)
    -2	6
COc1cccc(OCc2ccccc2)c1C(=O)NCCNc1cccc2ccccc12
    -7	-11
COC(=O)c1ccc(CN(Cc2cc(OC)cc(OC)c2)C(C)C)o1
    -3	3

Next compounds.
Value order: NPYLR7 agonist	NPYLR7 agonist max-min
COCCN(c1ccncc1)S(=O)(=O)c1cc(C)c(F)cc1F
    -6	-6
COc1ccccc1C1NC(=O)N(C)C2=C1C(=O)N(C(C)C(=O)NC1CCCCC1)C2 (stereo unspecified)
    -1	5
COCCCN(Cc1csc(COc2ccccc2)n1)C(=O)c1cccs1
    14	28
COC(=O)c1ccc(NC(=O)CSc2ccc3nc(-c4ccc(OC)cc4)cn3n2)cc1
    2	-2
CN1CCn2nc(C(=O)NCCSc3cn[nH]n3)cc2C1
    -2	-4
OCc1ccc(CN2CCC(c3ccccc3Cl)C2)o1 (stereo unspecified)
    4	3
CNC(=O)CN(C)S(=O)(=O)c1c(C)c(Cl)cc(C)c1Cl
    0&-1	-1&-1
CC(NC(=O)C(C)(C)C)C(=O)N(C)Cc1ccc(Br)s1 (stereo unspecified)
    -2	-3
Cc1ccc(F)c(S(=O)(=O)NCCNc2ncccn2)c1
    8	4
O=C(c1ccco1)N1N=C(c2cccs2)CC1c1ccc(Cl)o1 (stereo unspecified)
    0	0
O=C(Nc1nnc(-c2ccccc2F)s1)c1ccccc1F
    -2	-6
COCCNC(=S)NN=Cc1ccc(C)o1
    2	1
CC(=O)N1CCN(C(=O)C[C@@H]2C[C@@H](C(C)C)[C@H](CNC(=O)c3cccnc3)C=C2C)CC1
    -16	-18
CCCc1nc(C)c(C(=O)NCCN(CC)CC)s1
    5	2
C=C(C)C(O)(C(=C)C)c1ccc(CN(Cc2ccccc2C)C2CC2)o1
    0	3
Cc1cc(C)n(CCCNC(=O)c2cn(CC3CCCNC3)nn2)n1 (stereo unspecified)
    -6	-6
CCCC(C)C(=O)N1CCN(c2nccc(-c3ccc(Oc4ccccc4)cc3)n2)CC1 (stereo unspecified)
    4	2
C=CCSc1nc(C2CC2)cc(-c2ccc(Br)cc2)c1C#N
    -4	-8
Cc1ccc(C2=NOC(C(=O)NC(Cc3ccccc3)C(=O)N3CCOCC3)C2)cc1 (stereo unspecified)
    0	5
CC(C)(CNC(=O)CS(=O)(=O)C1CCCC1)c1ccc(F)cc1
    -15	-15
CC1CCN(c2nnc(SC(C)c3cccc([N+](=O)[O-])c3)n2C2CC2)CC1 (stereo unspecified)
    1	-2

The list is partial. The share of hits here may be higher or lower than overall.
